Rango-impB inh = prevents formation of the Rango-importin beta complex; Rango CFP/YFP FRET sensor + importin beta, 45 min; Potency, µM (top dose mostly 92.2 µM), inactives show at the top dose inhibition of complex formation; 340,000 compounds, 0.031% hits; AID 540263; active = rising FRET ratio curve, often small or poorly fitted; inconclusive = mostly compound fluorescence or quenching in the first reads; inactive = flat curves in all reads;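 note: potency is the fitted concentration of half-maximal effect; 0% = DMSO wells and 100% = buffer wells lacking importin beta; nearly all actives have a fitted effect of over 15% in size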
Target sequence (Q14974 whole entry, looked up): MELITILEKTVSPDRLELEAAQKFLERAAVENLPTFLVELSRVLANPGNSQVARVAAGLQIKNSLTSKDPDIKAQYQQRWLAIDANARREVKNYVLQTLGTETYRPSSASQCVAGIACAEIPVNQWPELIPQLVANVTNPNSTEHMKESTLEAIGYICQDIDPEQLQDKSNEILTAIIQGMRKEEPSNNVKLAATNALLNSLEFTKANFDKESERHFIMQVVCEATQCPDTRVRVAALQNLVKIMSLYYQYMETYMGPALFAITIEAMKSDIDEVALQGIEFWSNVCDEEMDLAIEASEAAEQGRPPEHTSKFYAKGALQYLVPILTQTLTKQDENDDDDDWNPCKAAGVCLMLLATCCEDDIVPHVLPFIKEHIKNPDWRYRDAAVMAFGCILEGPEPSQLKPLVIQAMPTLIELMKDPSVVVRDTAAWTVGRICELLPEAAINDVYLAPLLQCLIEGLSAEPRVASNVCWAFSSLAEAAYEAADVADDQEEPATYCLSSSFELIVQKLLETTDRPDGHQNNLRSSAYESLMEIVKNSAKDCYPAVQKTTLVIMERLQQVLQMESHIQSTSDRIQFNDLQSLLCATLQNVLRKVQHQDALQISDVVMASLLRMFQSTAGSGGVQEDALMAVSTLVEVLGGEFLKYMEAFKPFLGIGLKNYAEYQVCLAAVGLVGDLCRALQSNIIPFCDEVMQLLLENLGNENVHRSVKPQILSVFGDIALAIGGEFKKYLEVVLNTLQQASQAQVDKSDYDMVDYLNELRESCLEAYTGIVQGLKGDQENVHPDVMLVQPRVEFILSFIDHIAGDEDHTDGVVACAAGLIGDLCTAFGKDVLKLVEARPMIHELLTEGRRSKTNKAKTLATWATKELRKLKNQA
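FRET biosensor (snurportin 1 IBB flanked by EYFP and cerulean), 50 nM, with compound 5 min, then 0.125 microM importin beta in PBS, 1 mM DTT, 0.02% Tween-20, 0.1% BSA. CFP/YFP ratio read after 45 min at room temperature; pre-read flags interference.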
miR-21 FLuc = miR-21 reporter, rising signal. HeLa miR-21 FLuc reporter, luciferase, 48 h. Potency, µM (doses to about 38.3 µM), for the others: at the top dose reporter change, positive = more light. 340,000 tested, under 10 active. AID 2288; active = well fitted rising curve with a large enough effect; inconclusive = small, poorly fitted or top-dose-only effect; inactive = no such curve, though single readings can be large or run the other way;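 note: % of control where 0% means no effect; miR-21 action dims this reporter so a rising signal means less miR-21 action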
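Luminescence from a firefly luciferase reporter carrying a miR-21 binding site downstream, stably expressed under a CMV promoter in HeLa cells that make miR-21 endogenously, reports miRNA modulation after 48 h compound exposure up to approximately 40uM final.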
GLA inh pH 4.5 = blocks human alpha-galactosidase A at pH 4.5; purified enzyme, 4-MU-alpha-Gal fluorescence, pH 4.5; activity change, negative = inhibition, % at 105 µM; 230,000 tested, under 10 active; inconclusive = small, poorly fitted or top-dose-only inhibition, or a rising curve; inactive = flat fitted curve, though single readings scatter; no compound was filed as active;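 note: 0% = full activity with enzyme and -100% = basal without enzyme; dose as in the result columns while the protocol names 77 µM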
Rango release inh = inhibition of RanGTP-driven Rango-importin beta dissociation | AID 540253 | 340,000 compounds, 0.071% hits | Potency, µM (series often up to 46.1 µM), inactives show at the top dose activity change, negative = inhibition | Biochemical FRET Rango-importin beta, RanGTP-induced dissociation; active means falling FRET ratio curve, often poorly fitted, with flat reads before Ran was added; inconclusive means other falling curves, or compound fluorescence or quenching; inactive means flat or rising ratio curve;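 note: potency is the fitted concentration of half-maximal effect; % of control where 0% means no effect; nearly all actives have a fitted effect of over 45% in size; -100% = wells without RanGTP and RCC1; the record marks most hits as doubtful in a second field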
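Compounds preincubate 5 min with complex of recombinant Rango and importin beta in PBS with 1 mM DTT. Ran (0.6 uM) loaded with 2 mM GTP plus 0.2 uM RCC1 starts dissociation; FRET is recorded 45 min later.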
Numbers without * were called inactive; u = inconclusive; x = no result given; & = joins results of further samples. An excerpt; rates above refer to the full screens.

Rango-impB inh	miR-21 FLuc	GLA inh pH 4.5	Rango release inh	SMILES
3.3%	-7%	-6	15%	O=C1c2ccccc2C(=O)N1CCc1csc(-c2cccc(Cl)c2)n1
u	x	x	u	COc1ccc(CC2NCCC3=CC(=O)CCC32)cc1O (stereo not drawn)
4.1%	0%	-2	-7%	NC(=O)[C@@H]1CCCNc2c(F)cc([N+](=O)[O-])cc2C(=O)N[C@@H](CCC(=O)O)C(=O)N[C@@H](CO)C(=O)N1
-1.5%	3%	x	-3%	COc1ccc(NC(=O)C(=O)c2cn(CC(=O)N3CCOCC3)c3ccccc23)cc1OC
0.0%	-28%	-2	3%	CCCCOc1ccc(CN2CCC(O)CC2)cc1
-0.3%	0%	x	9%	COc1ccc(Br)cc1S(=O)(=O)n1c([N+](=O)[O-])cnc1C
-4.0%	6%	23	9%	COCCn1c(=O)[nH]c2cc(C(=O)NCC3CCCO3)ccc2c1=O (stereo not drawn)
-7.8%	-10%	-1	-1%	CCN(CC)S(=O)(=O)c1ccccc1/C=N\O
-7.0%	x	x	-10%	CCN(Cc1nc2cc(Cl)ccc2c(=O)[nH]1)C(=O)c1cc2c(s1)CCCCC2
0.1%	-10%	-7	-28%	BrC(/C=N/N1CCN(Cc2ccccc2)CC1)=C/c1ccccc1
4.9%	-2%	-7	11%	O=C(CN1C(=O)COc2ccccc21)N1CCN(c2ccccc2F)CC1
0.2%	0%	6	8%	CC(C(=O)Nc1cccnc1)n1cc([N+](=O)[O-])cn1 (stereo not drawn)
0.2%	-5%	8	7%	CC1=NN(c2nc(-c3ccccc3)cs2)C(=O)C1
0.6%	-4%	2	-5%	COC(=O)c1cn(NC(=O)Cc2ccccc2OC)c(=O)c2ccccc12
-0.6%	-3%	5	-7%	CCCCc1nc2sc3c(c2c(=O)n1NC(=O)c1ccco1)CC(C)(C)OC3
1.9%	-41%	x	8%	O=[N+]([O-])c1ccc(N=Nc2c(O)[nH]c3ccc(F)cc23)cc1
x	-5%	2	x	COc1cc(OC)cc(C(=O)Nc2cccc(-c3ccc4nncn4n3)c2)c1
7.1%	-2%	1	-6%	NC(=O)Cc1ccc(C(=O)c2ccccc2F)s1
u	-33%	-2	u	O=C(O)c1c2c(nc3ccccc13)/C(=C/c1ccc(O)cc1)CC2
1.4%	-5%	10	-2%	O=C(COc1ccccc1[N+](=O)[O-])NC1CC1

Rango-impB inh	miR-21 FLuc	GLA inh pH 4.5	Rango release inh	SMILES
-0.2%	-4%	0	-15%	COC(=O)/C(=C/c1ccco1)NC(=O)c1ccc(Br)o1
u	-2%	1	-11%	Cc1occc1-c1nnc(SCCNCCO)o1
-0.4%	-10%	-6	-3%	Cc1ccc(CNC(=O)/C=C/c2ccccc2Cl)cc1
0.5%	x	x	2%	Cc1nn(Cc2ccccc2)c(C)c1CNC(=O)CN=C1NS(=O)(=O)c2ccccc21
0.4%	-47%	2	13%	O=C(COC(=O)CC1CCCC1)Nc1cc2c(cc1Cl)C(=O)c1ccccc1C2=O
0.1%	-2%	1	0%	CC(=O)NCC(=O)OCC(=O)c1ccc(Br)cc1
-4.9%	0%	-4	-1%	Cc1cccc(NC(=S)N2CCN(Cc3ccccc3)CC2)c1C
0.4%	7%	7	-3%	Cc1ccc(NC(=O)CNc2ccc(N3CCOCC3)cc2)cc1S(=O)(=O)N(C)C
1.1%	-17%	-18	-4%	FC(F)(F)c1cnc(-c2cnc(-c3ccncc3)nc2)c(Cl)c1
4.7%	-5%	5	1%	Nc1nncn1C(=O)CCCOc1ccccc1
u	-8%	x	u	COc1ccc(/C=N/NC(=O)c2cc3c(ccc4ccccc43)o2)c(OC)c1
5.8%	19%	7	4%	COCC(C)NC(=O)CSc1nc(-c2ccccc2)c(-c2ccccc2)o1 (stereo not drawn)
-3.4%	-1%	0	19%	CCOC(=O)/C=C1\SCC(=O)N1CC(=O)NC(C)C
-3.1%	-2%&1%	5	8%	CCCCC(CC)CNC(=O)CCCCn1c(=O)[nH]c2ccsc2c1=O (stereo not drawn)
u	0%	3	-13%	O=C(/C=C/c1cccs1)N1CCC2(CC1)Oc1ccc(F)cc1C(=O)C21CC(c2ccccc2)=NO1 (stereo not drawn)
-0.5%	x	x	3%	COc1ccc(CC(=O)N[C@@H]2c3ccccc3CC[C@H]2OCc2ccccc2)cc1
-0.7%	-4%	-2	13%	OC(CNCc1cccc(Cl)c1)c1ccccc1 (stereo not drawn)
2.2%	-1%	0	10%	CC(=O)Nc1ccc(NC(=O)Cn2cnc3c(nnn3Cc3ccc(F)cc3)c2=O)cc1
1.4%	2%	-2	20%	Cc1cc(NC(=O)CSc2ccc3c(c2)OCCO3)no1
u	9%	-7	u	CC(=O)C1=C(C)NC(SCC(=O)c2ccc(F)cc2)=C(C#N)C1c1ccco1 (stereo not drawn)

Results in miR-21 FLuc, for 4 of the compounds above:
canonical_smiles	miR-21 FLuc
Cc1occc1-c1nnc(SCCNCCO)o1	-2%
CC(=O)Nc1ccc(NC(=O)Cn2cnc3c(nnn3Cc3ccc(F)cc3)c2=O)cc1	-1%
CCOC(=O)/C=C1\SCC(=O)N1CC(=O)NC(C)C	-1%
CCCCC(CC)CNC(=O)CCCCn1c(=O)[nH]c2ccsc2c1=O (stereo not drawn)	-2%&1%

Carrying on.
Rango-impB inh	miR-21 FLuc	GLA inh pH 4.5	Rango release inh	SMILES
-0.3%	3%	0	2%	C=C(C)C1Cc2c(C)nn(-c3ccccn3)c2C1 (stereo not drawn)
-2.4%	2%	-1	-5%	CC(C)C(=O)NNC(=O)c1csc(-c2cccs2)n1
-7.2%	2%	-1	-6%	O=C(Nc1cccnc1)c1cccc(S(=O)(=O)N2CCOCC2)c1
0.0%	-2%	2	0%	CCOC(=O)CCc1c(C)n[nH]c1C
0.8%	-1%	0	1%	COc1cc(/C=N/n2cnn(Cc3ccccc3Cl)c2=S)cc(OC)c1OC
0.0%	-29%	2	-20%	CCOc1ccc2nc(SC3CC(=O)N(c4ccccc4)C3=O)sc2c1 (stereo not drawn)
4.1%	x	x	2%	O=C1C=CCCC1
0.5%	-1%	-6	-5%	COc1cc2cc(CN(C(=O)Nc3ccccc3)C3CCCC3)c(=O)[nH]c2cc1OC
-2.6%	15%	-19	0%	CCCC(CCC)=NNc1ccc(S(=O)(=O)Nc2ccccc2OC)cc1[N+](=O)[O-]
1.7%	10%	-1	-3%	CCOc1ccc(NC(=O)N2CC=C(n3c(=O)[nH]c4ccccc43)CC2)cc1
7.5%	-2%	x	-12%	COc1cccc(C(C(=O)NC2CCCC2)N(C(=O)c2ccco2)c2ccccc2)c1OC (stereo not drawn)
-2.8%	-36%	1	-10%	CCOc1nc(C)ccc1-c1noc(-c2ccncc2)n1
0.8%	-14%	x	10%	COc1ccc(CCNC(=O)c2ccc(Br)cc2)cc1
1.5%	8%	-5	-9%	O=C(NNc1ccccn1)C(=O)NNS(=O)(=O)c1ccc(Cl)cc1
1.9%	-1%	-5	1%	CC(C)n1c(SCC(=O)Nc2ccccc2N2CCCCC2)nc2c1c(=O)n(C)c(=O)n2C
-1.0%	-3%	2	8%	O=C(CN1CCOc2ccccc21)NCc1ccco1
-0.2%	-32%	3	-2%	O=C(c1ccc(OCC2CCCO2)cc1)N1CCc2ccccc2C1 (stereo not drawn)
0.2%	-68%	13	4%	CCC(=O)Nc1cc(C(=O)OCC(=O)c2ccccc2)ccc1C
-0.8%	x	x	5%	O=C(c1ccc2noc(-c3ccccc3)c2c1)N1CCN(c2ccccc2)CC1
4.6%	-21%	-8	9%	Cc1ccc(/C=C2/N=C(c3ccccc3)NNC2=O)cc1

Three entries picked at random from the list so far:
Rango-impB inh	miR-21 FLuc	GLA inh pH 4.5	Rango release inh	SMILES
u	x	x	u	COc1ccc(CC2NCCC3=CC(=O)CCC32)cc1O (stereo not drawn)
-0.2%	-32%	3	-2%	O=C(c1ccc(OCC2CCCO2)cc1)N1CCc2ccccc2C1 (stereo not drawn)
-4.9%	0%	-4	-1%	Cc1cccc(NC(=S)N2CCN(Cc3ccccc3)CC2)c1C

(further entries)
Rango-impB inh	miR-21 FLuc	GLA inh pH 4.5	Rango release inh	SMILES
3.5%	-13%	-6	4%	O=c1c(-c2ccc([N+](=O)[O-])cc2)coc2c(O)c(O)ccc12
-1.2%	0%&0%	x	19%	Cc1ccc(CNS(=O)(=O)c2c(C)nc3scc(C)n3c2=O)cc1
5.6%	-5%	x	-5%	Cc1ccc(C(=O)/C=C/NNC(=O)c2ccccc2O)cc1
2.3%	0%	-2	11%	Cc1cc(C)n(Cc2ccccc2Cl)n1
u	-6%	-3	-23%	CCOC(=O)c1nn(-c2cccc(OC)c2)c2nc(Nc3ccccc3)cc(=O)n12
-2.7%	x	x	7%	O=C(COC(=O)c1cc(=O)[nH]c(=O)[nH]1)Nc1ccccc1F
0.7%	x	x	u	N[C@@H](CCC(=O)N[C@@H](CSN=O)C(=O)NCC(=O)O)C(=O)O
3.7%	x	x	-4%	CC(=O)Nc1ccc(NC(=O)c2cc(C3CC3)nc3c2cnn3C(C)C)cc1
-1.8%	-63%	1	-4%	O=C(CC(Nc1ccc(F)cc1)C(=O)OCC(=O)c1cccs1)c1ccccc1 (stereo not drawn)
-2.9%	-8%	1	-1%	COc1cc(/C=C/C(=O)OCC(=O)NCC2CCCO2)ccc1OCC#N (stereo not drawn)
u	-8%	3	u	Clc1ccc(NNc2ccnc3cc(Cl)ccc23)cc1
1.2%	-6%	13	4%	CCC(Sc1nc(=O)cc(N)n1-c1ccccc1)C(=O)Nc1cc(C)on1 (stereo not drawn)
1.3%	-3%	1	6%	O=C(c1cccc(F)c1)N1CCN(C(=O)c2cc3ncc(Br)cn3n2)CC1
u	-6%	u	u	Cc1cc(-n2c(=O)c(C#N)cc3c(=O)n4cccc(C)c4nc32)no1
3.7%	-17%	0	4%	Clc1ccc(-c2nnc(C3CC3)o2)cc1
-1.2%	x	x	-8%	CC(C)[C@H](NC(=O)c1ccccc1F)C(=O)NC1CCCCC1
-0.3%	1%	-9	20%	COCC(=O)NC1CCN(CC(=O)Nc2ccc(OC)cc2[N+](=O)[O-])CC1
-2.1%	-21%	-21	0%	CNC(=O)c1csc(-c2ccccc2)n1
1.0%	-10%	0	u	CCCNC(=O)c1nn2cc(Br)cnc2c1Cl
0.0%	-7%	-13	14%	CCNC(=O)c1ccc(OCC(=O)Nc2ccc(F)cc2)c(OC)c1

Rango-impB inh	miR-21 FLuc	GLA inh pH 4.5	Rango release inh	SMILES
-1.8%	-2%	0	1%	CCOC(=O)c1nnn(-c2ccc([N+](=O)[O-])cc2)c1C
-0.2%	x	x	-1%	COc1ccc(S(=O)(=O)Nc2cc3c4c(c2)CC(=O)N4CCC3)cc1
0.4%	-5%	4	14%	CN1C(C(=O)NCc2ccco2)CC2Cn3c(nc4cc(Cl)c(Cl)cc43)C21 (stereo not drawn)
-3.1%	-12%	4	4%	Cc1cc(N)n(-c2ccc(C(=O)O)cc2)n1
-0.1%	1%&-7%	x	6%	COc1ccccc1N1CCN(CCCNC(=O)Cn2ncc3c([nH]c4ccccc43)c2=O)CC1
-0.1%	-5%	2	-16%	CCOc1ccc(NC(=O)c2ccc(NC(=O)c3cn4c5c(c(N6CCN(C)CC6)c(F)cc5c3=O)OCC4C)cc2)cc1 (stereo not drawn)
1.2%	x	x	-13%	CC(C)(C)OC(=O)[C@H](CCCCN)NC(=O)c1nc[nH]c1C(=O)NCCCCCN
4.3%	-9%	-5	10%	O=C1CCCN1c1cccc(Br)c1
-1.2%	1%	9	u	O=C(NCCc1ccccc1)C(=Cc1ccc(C(=O)O)cc1)C(=O)NCCc1ccccc1
-5.8%	-4%	-1	-11%	O=C1CC(C2CCCO2)C(=O)N1c1ccccc1 (stereo not drawn)
-1.6%	-2%	x	-5%	COc1ccc(CNC(=O)C2CCN(c3nc(-c4ccccc4)nc4c3CCC4)CC2)cc1

Source: PubChem
